Screening results from PubChem.
MT1-MMP act inh: blocks activation of human MT1-MMP; P50281; HT1080 RFP-PRO-GFP cells, GFP/RFP ratio fluorescence, overnight; percent of plate control window, DMSO zero; GFP/RFP ratio change, % at 20 µM; actives 0.061% (n = 360,000); AID 651647;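 active = GFP/RFP ratio change of at least 30% with cell ATP level not reduced by more than half and red fluorescence within 50% of control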; note: strong numbers were not always called active
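Compound: 20 µM single dose, 1% DMSO / System: HT1080 RFP-PRO-GFP cells / Controls: DMSO and RFP-L50D-GFP cell wells / Read-out basis: GFP/RFP fluorescence ratio / Schedule: overnight compound exposure at 37 °C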
Env fusion inh: inhibitors of HIV Env-mediated cell fusion; HeLa-JRFL Env/CEM21 cell fusion, luciferase; inhibition, % at 12.3 µM; actives 1.1% (n = 360,000);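 active = mean replicate inhibition score of at least 50 and every replicate individually at or above 50; inconclusive = only one of the two criteria met; inactive = mean below 50 and not all replicates reaching 50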;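 note: 0% = plate neutral controls and 100% = maraviroc near 300 nM; one replicate is shown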
Rce1 inhib: yeast Ras-converting enzyme inhibition | Q03530 | yeast membranes, quenched prenylated peptide cleavage fluorescence | calls only | actives 0.27% (n = 290,000) | AID 2563;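 active = fall in fluorescence gain of 50% or more versus controls, with final raw signal at or below 3038400; inconclusive = same 50% fall but final raw signal above 3038400; inactive = fall in fluorescence gain under 50%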;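 note: plate controls were neutral control wells for no effect and wells lacking membranes for full effect; tested at 10 µM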
Target sequence (Q03530 whole entry, looked up): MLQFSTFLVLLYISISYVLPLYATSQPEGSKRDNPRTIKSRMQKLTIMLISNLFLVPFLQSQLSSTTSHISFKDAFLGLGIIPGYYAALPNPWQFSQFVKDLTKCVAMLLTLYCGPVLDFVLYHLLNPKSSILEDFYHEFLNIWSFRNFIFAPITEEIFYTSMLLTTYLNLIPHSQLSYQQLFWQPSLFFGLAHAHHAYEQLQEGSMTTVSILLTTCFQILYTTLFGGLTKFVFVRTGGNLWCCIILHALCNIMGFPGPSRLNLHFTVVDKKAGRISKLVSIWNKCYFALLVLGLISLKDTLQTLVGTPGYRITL
UUG fidelity: modulators of start codon recognition fidelity in yeast. S. cerevisiae UUG-firefly luciferase reporter, luminescence/redox ratio. activity score, % at 18.7 µM. actives 0.13% (n = 350,000);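 active = replicate mean at a twofold rise or more, about +100% in these data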;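 note: firefly luciferase made from a UUG start codon reports start codon fidelity; reporter light over untreated wells divided by growth signal over untreated wells; some hits fall short of that in this replicate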
PABP polyA inh: blocks human PABP binding to poly(A) RNA; P11940; fluorescence polarization; inhibition, % at 35 µM; actives 1% (n = 290,000);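 active = 50% or more with normal probe brightness, or confirmed in later tests; inconclusive = above 50% with abnormal brightness, or retests that disagree; inactive = below 50% or failed in later tests; about a fifth of its hits are not listed in these tables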;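 note: calls also rest on retests at 20 µM and on dose response follow-up; controls were probe without protein and protein plus probe with vehicle; some compounds called inactive have numbers as strong as hits; many hits fall short of the cut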
Target sequence (P11940 whole entry, looked up): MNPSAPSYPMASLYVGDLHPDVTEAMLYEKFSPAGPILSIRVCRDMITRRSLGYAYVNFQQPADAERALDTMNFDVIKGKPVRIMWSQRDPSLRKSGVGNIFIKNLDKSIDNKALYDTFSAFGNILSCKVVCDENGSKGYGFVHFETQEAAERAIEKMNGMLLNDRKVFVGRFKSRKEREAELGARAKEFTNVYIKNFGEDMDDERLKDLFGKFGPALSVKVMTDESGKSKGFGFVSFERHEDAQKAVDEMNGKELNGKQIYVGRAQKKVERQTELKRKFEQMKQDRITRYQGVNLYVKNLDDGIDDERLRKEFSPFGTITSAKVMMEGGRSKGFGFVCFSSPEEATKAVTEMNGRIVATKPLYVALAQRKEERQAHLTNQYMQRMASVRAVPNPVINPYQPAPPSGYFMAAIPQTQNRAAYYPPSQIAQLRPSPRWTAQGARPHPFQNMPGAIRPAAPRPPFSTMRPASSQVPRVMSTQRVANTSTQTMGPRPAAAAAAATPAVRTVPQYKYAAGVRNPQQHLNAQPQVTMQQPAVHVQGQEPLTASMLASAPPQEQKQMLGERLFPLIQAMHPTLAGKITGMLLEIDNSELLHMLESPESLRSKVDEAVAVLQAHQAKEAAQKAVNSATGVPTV
eIF4H FP inh: inhibitors of RNA binding by human eIF4H | eIF4H fluorescence polarization binding assay | inhibition, % at 35 µM | actives 0.94% (n = 290,000);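 active = 50% or more with normal probe brightness, or confirmed in later tests; inconclusive = above 50% with abnormal brightness, or retests that disagree; inactive = below 50% or failed in later tests; about a fifth of its hits are not listed in these tables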;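 note: calls also rest on retests at 20 µM and on dose response follow-up; 0% = protein and probe with vehicle and 100% = probe without protein; strong numbers were not always called active; many hits fall short of the cut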
CSC inhib: cancer stem cell inhibition; cancer stem cell-like cells viability, luminescence; inhibition, % at 7.5 µM; actives 1.1% (n = 300,000); AID 2717;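 active = mean at 75% or more and at least half the replicates too; inconclusive = mean and replicates disagree; tested in HMLE shEcad cells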;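 note: 0% = median of negative and 100% = median of positive control wells; the first replicate is given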
MT1-MMP act inh RFP: further read-out of MT1-MMP act inh, marked with its call; RFP signal change, %; measured here: RFP expression control read;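 0 = vehicle wells; hits needed this value within 50% of zero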
An asterisk follows results filed as active; i = inactive; ? = inconclusive; · = no result given; & = joins results of further samples.

SMILES	MT1-MMP act inh	MT1-MMP act inh RFP	Env fusion inh	Rce1 inhib	UUG fidelity	PABP polyA inh	eIF4H FP inh	CSC inhib
O=c1[nH]c2ccccc2c(O)c1Cc1ccccc1	0	2	2	i	·	-14	-2	5
Cc1ccc(-n2nc(C)c3cc(C(=O)O)sc32)cc1	3	4	·	i	-10	0	6	-2
CCCn1c2ccccc2c2cnn(CC(=O)NC3CCN(Cc4ccccc4)CC3)c(=O)c21	3	-6	3	i	-7	0	4	-9
C/C(=N\N=C(N)N)c1ccc(Cl)cc1	1	1	·	i	·	-8	2	-9
CSCc1ccc(C(=O)N2CCCC(Nc3ccc(F)cc3)C2)o1 (configuration not stated)	1	2	-178	i	-8	9	-11	18
Cc1ccc(-c2ccc(=O)n(CC(=O)N3CCN(c4cccc(C)c4)C(C)C3)n2)cc1 (configuration not stated)	23	-10	·	i	-4	-5	-2	3
Nc1ccc(Nc2nc(-c3cccs3)cs2)cc1	4	5	-70	i	·	0	8	9
CC(=O)c1nc(N2C(=O)CC(Cc3cc(C)cc(C)c3)C2=O)sc1C (configuration not stated)	-4	-4	0	i	·	-1	-3	-6
O=C(CN1C(=O)C2CC=CCC2C1=O)NCc1ccc2c(c1)OCO2 (configuration not stated)	2	6	·	i	·	1	-9	-10
O=C(O)CC(C(=O)O)c1cn(Cc2ccccc2)c2ccccc12 (configuration not stated)	-1	-3	·	i	26	21	4	-10
COc1ccc(C(C)=O)cc1Cn1c(C)c(C(=O)NCc2cccc(Cl)c2)sc1=O	2	-2	-24	·	-18	·	·	·
C=CCc1cc(/C=N/n2cnnc2)cc(OCC)c1O	0	0	46	i	-23	2	-2	-6
Cc1noc(/C=C/N(C)C)c1S(=O)(=O)N1CCCC(C(=O)NC(C)c2ccccc2)C1 (configuration not stated)	-12	-1	-36	i	5	-6	-3	2
Cc1c(NC(=O)CSc2nncn2-c2ccccc2)c(=O)n(-c2ccccc2)n1C	0	3	·	i	-14	·	·	-7
CC(=O)Oc1ccc(-c2cccc(C(=O)NCC(=O)O)c2)cc1	11	2	-73	i	-15	6	-13	-6

Reformatted with two lines to a compound: entries from further up
Each structure is followed by: MT1-MMP act inh, MT1-MMP act inh RFP, Env fusion inh, Rce1 inhib, UUG fidelity, PABP polyA inh, eIF4H FP inh, CSC inhib
C=CCc1cc(/C=N/n2cnnc2)cc(OCC)c1O
  0, 0, 46, i, -23, 2, -2, -6
Cc1noc(/C=C/N(C)C)c1S(=O)(=O)N1CCCC(C(=O)NC(C)c2ccccc2)C1 (configuration not stated)
  -12, -1, -36, i, 5, -6, -3, 2
Cc1c(NC(=O)CSc2nncn2-c2ccccc2)c(=O)n(-c2ccccc2)n1C
  0, 3, ·, i, -14, ·, ·, -7
CC(=O)Oc1ccc(-c2cccc(C(=O)NCC(=O)O)c2)cc1
  11, 2, -73, i, -15, 6, -13, -6

Other records
SMILES	MT1-MMP act inh	MT1-MMP act inh RFP	Env fusion inh	Rce1 inhib	UUG fidelity	PABP polyA inh	eIF4H FP inh	CSC inhib
COc1cccc(NC(=O)CN2C(=O)COc3ccc(S(=O)(=O)N4CCOCC4)cc32)c1	-5	0	-5	i	3	·	·	-5
COc1cc(C(C)=O)ccc1OCC(O)CN(CCO)Cc1ccccc1 (configuration not stated)	1	6	-14	i	-24	-15	-5	-1
O=C(CSc1ccccc1)NCCCc1ccccc1	0	4	3	i	7	-9	-2	15
CCOC(=O)C1(Cc2ccccc2C)CCCN(C(=O)c2cc(C3CC3)[nH]n2)C1 (configuration not stated)	-1	-2	-4	i	0	-10	-2	-10
CC(=O)Nc1ccc(S(=O)(=O)N[C@@H](C)C(=O)Nc2ccc(N3CCOCC3)cc2)cc1	·	·	·	i	-6	-2	-8	-6
CN(C)C(=O)CCc1ccc2c3c([nH]c2c1)[C@]1(CCc2ccccc2)[C@@H](C(=O)N2CCCCC2)C[C@H](CC(=O)NCCCn2ccnc2)C(=O)N1CC3	3	5	-61	·	1	·	·	·
Nc1nonc1-n1nnc(C(=O)N/N=C/c2ccc(O)cc2)c1COc1ccc(F)cc1	8	6	2	i	-29	-4	3	-3
C[C@H]1CN([C@@H](C)CO)C(=O)CCCn2nncc2CO[C@H]1CN(C)S(=O)(=O)c1ccc(Oc2ccccc2)nc1	1	2	11	·	7&4	·	·	·
CCOC(=O)N1CCN(C2CC(=O)N(c3ccc(F)cc3)C2=O)CC1 (configuration not stated)	-2	6	·	i	-13	-4	8	-10
Cc1cc(-c2ccc(F)cc2)nc2cc(C(N)=O)nn12	-8	-2	·	i	·	12	4	-13
O=C(COC(=O)CCC1CCCC1)Nc1ccccc1Sc1ccccc1	0	-1	31	i	·	9	1	6
CC(NC(=O)C(=O)N1CCCCC1)C(c1cccs1)N1CCN(c2ccccc2F)CC1 (configuration not stated)	-3	-7	8	i	-11	-8	-15	11
CCn1nc(C(=O)OCC(=O)N2CC(=O)Nc3ccccc32)c2ccccc2c1=O	5	7	-11	i	·	10	3	3
Cc1ccc2[nH]c(=O)c(CN(CCc3ccccc3)C(c3nnnn3Cc3ccco3)C(C)C)cc2c1 (configuration not stated)	-27	-16	72*	i	-8	12	17	5
C/C=C(\C)CN1CCC(n2nccc2NC(=O)CCCc2ccccc2)CC1	-1	4	3	i	5	-4	-5	-9
S=C(c1ccc(-c2ccc(Br)cc2)o1)N1CCCCC1	0	-3	-79	i	-35	-6	-3	·
CN=c1scc(C)n1/N=C/c1cc(Br)c(O)c(Br)c1	-2	1	12	i	·	-7	1	-1
CC(=O)c1cccc(S(=O)(=O)N2CCC(n3nnc4cc(F)ccc43)CC2)c1	0	3	-88	i	·	4	1	7
O=C1NCCc2onc(-c3ccc(Br)cc3)c21	6	-2	-42	·	-10	·	·	·
CCOc1ccc(N(C)Cc2cc(=O)oc3ccc(OCC)cc23)cc1	3	-2	-13	i	-16	0	-4	-1
O=C(CCC1CCCN(c2ncccn2)C1)NCc1ccccc1F (configuration not stated)	-1	5	5	i	·	-3	-2	-16
CC1CCc2cc(F)ccc2N1C(=O)c1cnc2sccn2c1=O (configuration not stated)	-6	1	-2	i	-11	-10	-1	-1
CCOc1cc(C(=O)NC)cc(OCC)c1OCC	-3	-1	·	i	-19	-6	-5	-2
O=C1CCC(=O)c2ccc3c4c(ccc1c24)CC3	-4	1	-17	·	-20	·	·	·
S=C(Nc1ccc(Cl)cc1)c1nc2ccccc2s1	1	-2	·	i	-21	-2	12	9
Cc1ccnc(SCC(=O)n2c3c(c4ccccc42)CC(C)CC3)n1 (configuration not stated)	1	4	-14	·	-7	0	0	·
CCCCC(=O)NNC(=O)c1c(O)c2ccccc2[nH]c1=O	1	8	8	i	·	-1	-1	1
Cc1ccc(-n2cc(CNC(C)c3cnn(C)c3C)c(-c3ccc(F)cc3)n2)cc1 (configuration not stated)	-7	-7	38	i	·	-12	-6	-15
O=C(CSc1ncnc2c1oc1ccccc12)NCc1ccco1	6	-3	·	i	-13	-1	9	-6
O=C(c1ccccc1)N1CCN(C(=O)c2ccc([N+](=O)[O-])cc2)CC1	-2	1	0	i	·	0	1	-14
C=CCN(C(=O)Cn1c(C(=O)OC)cc2oc(C)cc21)c1ccccc1	-2	2	7	i	-3	-2	-1	11
O=C(O)CC(Cn1cnnn1)c1ccccc1 (configuration not stated)	0	5	-4	i	23	8	5	1
CCCOc1ccc(NC(=O)CC2C(=O)N(CC)C(=S)N2CCNC(C)=O)cc1 (configuration not stated)	0	4	-13	i	-8	-14	-1	8
O=C(c1ccccc1)c1cc[n+]([O-])cc1	0	3	-111	·	-9	12	10	-5
Cc1ccc(-n2c(SCC(=O)NC3CCCCC3)nc3c(c2=O)SCC3)cc1	2	4	-7	i	8	0	1	16
O=C(NC(c1ccccc1)c1ccc2ccccc2n1)C1CCN(Cc2ccc(Cl)c(Cl)c2)CC1 (configuration not stated)	0	-3	-5	·	5	·	·	·
COC(=O)c1sc2nc(N3CCCCC3)c3c(c2c1N)CCCC3	-4	-6	·	i	-7	13	-4	85*
Cc1cc([N+](=O)[O-])ccc1NC(=O)C[n+]1ccc(N(C)C)cc1	-4	-1	4	i	·	8	8	-3
CC(=O)c1nn(-c2ccccc2)cc1C(=O)c1ccc(C)cc1	0	-3	17	i	-11	·	·	-14
Cc1oc(-c2cc(F)ccc2F)nc1CN1CCN(c2cnccn2)CC1	1	1	11	i	-7	-6	-2	9
C=CCNc1ncnc2c1ncn2[C@H]1CN(CCOC)C[C@@H](CO)O1	4	4	?	·	-1	·	·	·
O=C(c1ccc2nc(N3CCCCC3)sc2c1)N1CCN(Cc2ccc3c(c2)OCO3)CC1	-1	-16	14	i	-7	-4	-7	3
CCCC(=O)Nc1c(-c2cccs2)c(=O)c2ccccc2n1CC	·	·	·	i	·	-3	-13	0
Cn1cc(CN2CCN(CCO)CC2)c(-c2ccc(Oc3ccccc3)cc2)n1	-3	-2	-10	i	1	-12	0	36
COc1ccc(C(=O)NCc2cn3cccc(C)c3n2)cc1OC	2	5	3	i	-6	1	11	11
O=C(N/N=C/c1ccccn1)c1ccc(Cl)c(Cl)c1	5	1	-1	i	-27	-2	16	25
CC1CC(C)CN(S(=O)(=O)N2CCCC(C(=O)NCCc3ccc(Cl)cc3)C2)C1 (configuration not stated)	-6	-10	24	i	-6	3	-1	-6
O=C(NN1C(=O)/C(=C/C=C/c2ccccc2)SC1=S)c1ccncc1	-35	36	-1	i	·	-11	2	10
CCC(C)NS(=O)(=O)c1ccc(OCC(=O)NCc2ccc3c(c2)OCO3)cc1 (configuration not stated)	3	2	-52	i	-10	0	-10	-14
Cc1cccc(C(C(=O)NC2CCCC2)N(C(=O)c2csnn2)C2CCCC2)c1 (configuration not stated)	2	6	7	·	-1	3	-11	-5
Cc1ccn2c(CN(C)CCn3nc(C)cc3C)c(C(=O)N3CCCCCC3)nc2c1	2	0	21	i	·	-9	-8	-4
O=C(c1cc(-c2cccc(Cl)c2)on1)N1CCOCC1	1	6	-6	i	-9	6	4	-5
Cc1cccc(/C(N)=N/OC(=O)COc2ccc(Cl)c(C)c2)c1	2	5	19	i	-6	-5	6	-10
Nc1nc2ccccc2[nH]1	2	3	1	i	-22	-3	-3	-6
COC(=O)CCC(C)C1CCC2C3C(OC(C)=O)CC4CC(O)CCC4(C)C3CC(O)C12C (configuration not stated)	0	2	6	·	3	·	·	·
COc1ccc2nc(Nc3ccccc3OC)sc2c1	-2	-10	-204	i	·	10	-7	10
OC1CCCN(Cc2ccc3ccc4cccc5ccc2c3c45)C1 (configuration not stated)	-1	4	·	i	-20	9	22	35
O=C(Nc1cccc(-c2ccc(N3CCOCC3)nn2)c1)c1cccc(Cl)c1	5	0	-8	·	-16	·	·	·
COC(=O)c1sc2ccccc2c1-n1cccc1C(=O)C(=O)Nc1ccc(Cl)cc1	-6	-8	·	i	-7	3	-14	30
COc1cc(OC)cc(C(=O)N2CCC(C(=O)N3CCOCC3)CC2)c1	1	1	2	i	·	-1	-10	·
The results go on:
SMILES	MT1-MMP act inh	MT1-MMP act inh RFP	Env fusion inh	Rce1 inhib	UUG fidelity	PABP polyA inh	eIF4H FP inh	CSC inhib
C=CCNC(=S)N/N=C(\C)c1ccc(-n2ccnc2)cc1	7	3	1	i	·	5	-3	48
CC(C)(O)C#Cc1ccc(C(=O)N2CCN(c3ccc(F)cc3)CC2)cc1	-6	-5	1	i	·	-8	-3	5
OCC[C@@H]1C[C@@H](O)[C@H](O)[C@@]2(CCCCO2)O1	1	10	13	i	-7	·	·	-8
CC(=O)c1ccc(OCC(=O)Nc2ccc(N3CCCCC3)cc2)cc1	7	6	6	·	-17	·	·	-6
C=CCNC(=O)NC(=O)COC(=O)c1ccccc1Sc1ccc(C(F)(F)F)cc1[N+](=O)[O-]	-1	-7	1	i	·	4	-5	-10
